Sfp inh = inhibitors of Bacillus subtilis Sfp phosphopantetheinyl transferase; AID 1490; Potency, µM, for inactives: max response, negative = inhibition, hits mostly inhibitors; hit rate 3.5% among 310,000; Q9F4F7; Biochemical Sfp PPTase activity, qHTS; active = well fitted inhibition curve with a large enough effect; inconclusive = small, poorly fitted or top-dose-only effect, or another doubt; inactive = no such curve, though single readings can be large or run the other way;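 note: the enzyme is Sfp with the accession as filed and its product quenches rhodamine fluorescence; potency is the fitted concentration of half-maximal effect; 0% = enzyme reaction without inhibitor and -100% = no enzyme wells; top concentration of the series not given in the record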
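Step 1, compound plus 15 nM Sfp-PPTase, 15 min, room temperature. Step 2, add rhodamine-CoA (5 uM) and BHQ-2-YbbR (12.5 uM). Step 3, read 525/598 nm fluorescence at 0 and 30 min.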
Menin-MLL FL inh = menin-MLL binding inhibition, fluorescein peptide. Fluorescence polarization, fluorescein-MLL peptide displacement from menin. FP activity change, % at 61.4 µM. 290,000 tested, under 10 active; inconclusive = falling polarisation curve, or a change in total fluorescence; inactive = total fluorescence flat and polarisation flat or rising; no compound was filed as active; the % refers to the polarisation; negative = inhibition;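 note: % of control where 0% means no effect; inhibitors lower the polarisation; unlabelled MLL peptide was the positive control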
gsp antag = gsp mutant antagonism; gsp-mutant cells, cAMP HTRF, 30 min; control for the full effect not named in the record; hit rate 0.4% among 340,000; AID 624288; Potency, µM (highest dose often 76.9 µM), for the others: top-dose activity change, negative = inhibition, hits mostly inhibitors; active = falling curve of any shape with a large fitted effect; inconclusive = falling curve, mostly with a smaller effect; inactive = flat or rising curve; cell line not stated here;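 note: intracellular cAMP measured with PDE inhibitor Ro 20-1724 present during compound exposure; potency is the fitted concentration of half-maximal effect; % is set by controls: 0 for no effect and ±100 for the full control effect; nearly all actives have a fitted effect of over 65% in size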
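G418-selected cells were plated in DMEM/10% FBS for 16-24 h at 37C, then treated with compounds plus the PDE inhibitor […] (300 uM solution added) for 30 min at 37C. Intracellular cAMP was measured by HTRF after 30 min lysis at room temperature.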
TRPV1 PAM = human TRPV1 potentiation; TRPV1-expressing cells, Fluo-8 calcium influx, capsaicin EC20 potentiation; host cell line not named in the record; control for the full effect not named in the record; potentiation, % at 8.33 µM; hit rate 0.02% among 320,000; AID 540277; active means potentiation above 80%; inconclusive means 30% to 80%; inactive means below 30%; note: 0% is about no effect
Target sequence (Q8NER1 whole entry, looked up): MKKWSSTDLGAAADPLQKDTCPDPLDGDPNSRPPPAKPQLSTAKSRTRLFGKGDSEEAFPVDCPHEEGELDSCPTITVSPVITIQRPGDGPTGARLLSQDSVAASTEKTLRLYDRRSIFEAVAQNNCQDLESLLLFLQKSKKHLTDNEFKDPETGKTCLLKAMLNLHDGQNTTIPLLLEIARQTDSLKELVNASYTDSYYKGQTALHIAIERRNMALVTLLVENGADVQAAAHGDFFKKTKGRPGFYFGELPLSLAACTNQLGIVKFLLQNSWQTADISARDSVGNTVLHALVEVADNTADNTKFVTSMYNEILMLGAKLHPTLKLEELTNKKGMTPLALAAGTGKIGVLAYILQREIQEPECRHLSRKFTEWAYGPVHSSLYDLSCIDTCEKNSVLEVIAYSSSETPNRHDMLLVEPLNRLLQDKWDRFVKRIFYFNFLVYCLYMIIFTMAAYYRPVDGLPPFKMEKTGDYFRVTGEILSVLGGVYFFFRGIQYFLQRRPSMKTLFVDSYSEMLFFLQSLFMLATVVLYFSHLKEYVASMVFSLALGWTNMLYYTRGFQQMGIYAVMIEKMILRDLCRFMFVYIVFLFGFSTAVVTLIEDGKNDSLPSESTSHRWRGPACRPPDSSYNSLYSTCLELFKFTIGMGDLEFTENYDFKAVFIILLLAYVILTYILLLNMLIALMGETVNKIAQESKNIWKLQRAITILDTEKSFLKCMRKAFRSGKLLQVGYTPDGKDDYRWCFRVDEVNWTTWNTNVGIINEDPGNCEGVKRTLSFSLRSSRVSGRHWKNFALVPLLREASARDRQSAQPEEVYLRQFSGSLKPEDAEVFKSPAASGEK
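Fluo-8 calcium influx in TRPV1-expressing cells, kinetic read (ex 480/em 520 nm). Compound added and read 3 min for agonist activity, followed by capsaicin at EC20 final and 2 min further read for enhancement.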
CtBP-E1A blk = inhibitors of CtBP/E1A interaction | AlphaScreen GST-E1A/His-CtBP binding, 1536-well; active compounds read low; control for the full effect not named in the record | activity change, % (test concentration not listed) | hit rate 0.49% among 340,000; in the data active means activity change below about -65%; inconclusive means about -30% to -65%; inactive means above about -30%; note: % is set by controls: 0 for no effect and ±100 for the full control effect
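Protein mix (5X: 125 nM each GST-E1A, His-CtBP) was incubated with pinned compound 2 h at 37 deg C in dark, in 50 mM Tris pH 8.0 buffer with 300 mM NaCl. Glutathione donor and nickel acceptor beads followed; AlphaScreen signal read after 1 h.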
gsp agonist = agonists of gsp mutant (McCune-Albright syndrome); gsp mutant cells, cAMP HTRF, 30 min; control for the full effect not named in the record; hit rate 0.13% among 340,000; Potency, µM (top dose mostly 76.9 µM), for the others: at the top dose activation (cAMP increase), actives largely listed as activators; AID 624287; active = well fitted activation curve with a large enough effect; inconclusive = small, poorly fitted or top-dose-only effect, or another doubt; inactive = no such curve, though single readings can be large or run the other way; cell line not stated here;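 note: phosphodiesterase inhibitor Ro 20-1724 added with compounds to block cAMP breakdown; potency is the fitted concentration of half-maximal effect; nearly all actives have a fitted effect of over 60% in size; about a fifth of the inactives were tested at one dose only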
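Cells in DMEM/10% FBS with G418 were pretreated with compounds in DMSO plus […] (300 uM stock) for 30 min at 37C. cAMP was measured by HTRF (cAMP-d2 plus anti-cAMP antibody-K) after 30 min at room temperature.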
ClpP mod = qHTS Assay for Activators of ClpP; ATP-dependent Clp protease proteolytic subunit (Bacillus subtilis (strain 168)), P80244; purified B. subtilis ClpP, FRET peptide cleavage, 20 min; Potency, µM (highest dose often 57.5 µM), inactives show top-dose activity change, negative = active; hit rate 1.9% among 340,000; active = well fitted falling curve with a large enough effect; inconclusive = small, poorly fitted or top-dose-only effect; inactive = no such curve, though single readings can be large or run the other way; note: potency is the fitted concentration of half-maximal effect; the source files actives as falling curves though it sought activators and does not explain the sign; nearly all actives have a fitted effect of over 65% in size; many hits overshoot -100%
Target sequence (P80244 whole entry, looked up): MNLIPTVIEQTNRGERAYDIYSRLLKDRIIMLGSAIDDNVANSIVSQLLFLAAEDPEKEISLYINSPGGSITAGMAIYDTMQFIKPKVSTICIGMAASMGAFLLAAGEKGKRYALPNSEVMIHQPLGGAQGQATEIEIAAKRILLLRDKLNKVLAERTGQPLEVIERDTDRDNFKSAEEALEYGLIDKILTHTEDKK
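Purified B. subtilis ClpP, 10 microg/mL final in Tris/HCl pH8 with KCl, BSA, glycerol and Tween-20, cleaved an Abz/nitrotyrosine-quenched decapeptide. Fluorescence (ex 320, em 430) was read at 0 and 20 min at room temperature. Delta was normalized to 5.8 microM ADEP and DMSO/no-enzyme controls.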
* marks the source's active call; other numbers are inactive results; ? = inconclusive; / = not tested or not shown; & = joins results of further samples; [ ] = remark or other dose. The order is random (roughly 5.3% active in at least one column).

SMILES	Sfp inh	Menin-MLL FL inh	gsp antag	TRPV1 PAM	CtBP-E1A blk	gsp agonist	ClpP mod
Cc1cc(C(=O)NNC(=O)c2sccc2C)c(C)o1	/	/	-3%	6	1	-20%[15.4 µM]	-0.9%
COc1cc(C(=O)OCC(=O)Nc2cc(S(=O)(=O)N3CCOCC3)ccc2C)ccc1OCC(C)C	/	/	-18%	7	-1	-10%[15.4 µM]	/
O=C(CC1C[C@H](C(=O)N2CCOCC2)[C@@]2(CCC3CCCC3)c3[nH]c4ccccc4c3CCN2C1=O)NCC12CC3CC(CC(C3)C1)C2 (stereo not given in full)	/	/	1%	/	7	/	1.6%
COc1ccc(CNC(=O)CN(C(=O)c2snc(C(N)=O)c2N)c2cccc(F)c2)cc1	19%	-0.6	5%	-14	6	-7%	/
Cc1ccc2cc(/C=N/NC(=O)CN3CCOCC3)c(Cl)nc2c1	14%	-2.2	10%	0	-1	18%	-2.7%
Cc1ccc(NC(=S)N2CCN(S(=O)(=O)c3ccc(C)cc3)CC2)cc1	9%	/	-4%	2	17	-5%[15.4 µM]	-2.9%
Cc1ccc(C)c(NC(=O)CN(C)C(=O)c2cccc(S(=O)(=O)N3CCCC3)c2)c1	/	/	9%	0	-3	-5%[15.4 µM]	1.1%
CCCn1c(SCC(=O)NCc2ccc3c(c2)OCO3)n[nH]c1=O	/	/	13%	5	-5	1%	-0.4%
O=[N+]([O-])c1cc(Cl)cc(C2=NCCN2)c1	3%	0.1	12%	-7	-3	-21%	1.4%
O=C(N/N=C/C=C\c1ccccc1[N+](=O)[O-])c1cccs1	4%	2.1	-7%	1	-9	-6%	-1.1%
Cc1ccn(C(=O)c2cc3c(C)nn(-c4ccccc4)c3s2)n1	-1%	-8.4	-3%	-7	15	5%	3.5µM*
Cc1ccc(OCC(=O)Nc2ccc(S(=O)(=O)N(C)C3CCN(C)CC3)cc2)c(C)c1	-13%	/	9%	5	-5	-29%	1.0%
Cc1ccc2c(c1)N(CC(=O)NCCCN1CCCCC1)C(=O)CO2	9%	0.2	11%	-4	5	29%	/
COC1=C(N)C(=O)c2nc(-c3nc(C(=O)O)c(C)c(-c4ccc(OC)c(OC)c4O)c3N)ccc2C1=O	3.5µM*	11	?	-9	?	/	-1.6%
CCCOC(=O)c1cc(=O)[nH]c2ccccc12	13%	5.2	23%	-4	22	-16%	-14%
Cc1ccc(NS(=O)(=O)c2c(C)[nH]c(C)c2C(=O)N2CCCC2)cc1Cl	17%	1.7	8%	11	-7	-69%[inhibitor]	-0.7%
COc1cc(NC(=O)c2nccn2C)cc(C(=O)Nc2cccc(C(F)(F)F)c2)c1	-2%	2.6	8%	-17	7&-1	-33%	4.1%&3.9%
CC(c1ccccc1)N1CC(C(=O)N2CCN(c3ccccc3)CC2)CC1=O (stereo not given)	11%	-1.2	-8%	/	4	-43%[inhibitor]	1.3%
C=CCOc1ccc(C2C(C#N)=C(N)N(N(C)C)C3=C2C(=O)CCC3)cc1 (stereo not given)	17%	4.7	2%	5	/	3%	-0.6%
COc1ccccc1NC(=O)c1ccc(-c2ccccc2[N+](=O)[O-])o1	16%	-0.1	-48%	27	-3	-8%[15.4 µM]	/
COc1cc(OC)cc(C(=O)N2CCCC(Nc3ccc(F)cc3)C2)c1 (stereo not given)	1%	-2.1	10%	-9	-1	?	0.2%
C/C(CC(=O)Nc1ccc2c(c1)OCCO2)=N\NC(=O)Cc1ccc(Cl)cc1	0%	2.2	6%	1	18	-8%[15.4 µM]	-8.4%
Cc1onc(-c2ccccc2)c1C(=O)OCC(=O)c1ccccc1	18%	1.6	-9%	-6	26	-14%	-0.3%
O=C(NCc1ccc2c(c1)OCO2)C(=O)Nc1cc2c3c(c1)CC(=O)N3CCC2	/	/	-1%	-8	-2	-51%[inhibitor]	-1.6%
CC(Oc1ccc(F)cc1)C(=O)Nc1cccc(-c2nn[nH]n2)c1 (stereo not given)	32µM*	2.2	-5%	9	-6	1%	0.7%
N#Cc1ccc(OCC(=O)N2CCCC2=O)cc1	/	/	3%	-13	/	?	1.0%
Cc1ccc(C(=O)O/N=C(\N)c2ccc(Br)cc2)cc1C	17%	13	7%	-15	3	-4%	0.4%
CC(C)[C@H](NC(=O)OCc1ccccc1)C(=O)OCC(=O)c1ccccc1	/	/	10%	/	0	6%[15.4 µM]	-20%
COc1ccc(Oc2nnc(C)c3ccccc23)cc1	2%	-1.5	0%	-9	-2	-4%	0.2%
CCN(CC)C(=O)c1ccc(C(=O)c2ccccc2)cc1	-3%	3.4	3%	-10	7	-64%[inhibitor]	-10%

A second format for 2 compounds above.
COc1cc(OC)cc(C(=O)N2CCCC(Nc3ccc(F)cc3)C2)c1 (stereo not given)
  Sfp inh = 1%; Menin-MLL FL inh = -2.1; gsp antag = 10%; TRPV1 PAM = -9; CtBP-E1A blk = -1; gsp agonist = ?; ClpP mod = 0.2%
C/C(CC(=O)Nc1ccc2c(c1)OCCO2)=N\NC(=O)Cc1ccc(Cl)cc1
  Sfp inh = 0%; Menin-MLL FL inh = 2.2; gsp antag = 6%; TRPV1 PAM = 1; CtBP-E1A blk = 18; gsp agonist = -8%[15.4 µM]; ClpP mod = -8.4%

(listing goes on)
SMILES	Sfp inh	Menin-MLL FL inh	gsp antag	TRPV1 PAM	CtBP-E1A blk	gsp agonist	ClpP mod
COc1ccc2cc(-c3ccccc3)c(=O)oc2c1	12%	0.4	15%	-4	71	?	3.4%
CS(=O)(=O)N(CC(=O)N1CCc2ccccc2C1)c1cccc(F)c1	19%	-0.3	-1%	-1	1	9%	/
CCOc1ccccc1C(=O)NCC(=O)OCc1csc(CC(=O)Nc2ccc(C)cc2)n1	/	/	-6%	-7	-11	-1%	0.5%
NC(=O)c1ccccc1NC(=O)CN1CCN(Cc2ccc(Cl)cc2Cl)CC1	0%	2.5	-12%	-16	-5	0%[15.4 µM]	-2.3%
CCOC(=O)c1c(C)nc(C)c(C(=O)OCC)c1-c1ccc(Br)cc1	5%	6.5	-3%	-11	-1	-2%[15.4 µM]	-1.5%
Cc1ccc(NC2=C(N3CCCCC3)C(=O)c3ccccc3C2=O)cc1	-13%	0.2	-2%	-2	6	-29%	-21%
COc1cccc(C2C(C#N)=C(N)Oc3c2oc(CO)cc3=O)c1OC (stereo not given)	-11%	2.1	11%	-1	-1	-23%	-0.4%
CCOc1cc(C(C(=O)NCC2CCCO2)N(C(=O)Cn2nnc3ccccc32)c2ccc(C(C)=O)cc2)ccc1O (stereo not given)	19%	-0.5	-12%	-2	-9	6%[15.4 µM]	0.1%
OC(c1ccccc1)c1nccc2ccccc12 (stereo not given)	-10%	-5.1	/	15	0	-3%[15.4 µM]	/
COc1cc(OC)cc(C(=O)NCC(=O)N2CCC(C)CC2)c1	17%	2.5	4%	-7	4	0%	-23%
N#CCCn1c(C(C#N)(CCC#N)CCC#N)nc2ccccc21	7%	-1.4	?	5	9	-27%	-1.5%
O=C(NCCc1ccccc1)C1CCN(S(=O)(=O)N2CCCCCC2)CC1	1%	0.0	6%	-12	-1	12%	/
Cc1ccc(CN(C(=O)c2csnn2)C(C(=O)NC2CCCC2)c2cccnc2)cc1 (stereo not given)	22%	6.3	-12%	4	10	19%	/
COc1ccc(CN(C(=S)Nc2ccccc2)C2CC(=O)N(c3ccccc3)C2=O)cc1 (stereo not given)	8%	1.8	-29%	-10	-2	1%	0.7%
CC(NC(=O)NCCCC(=O)O)(C(F)(F)F)C(F)(F)F	15%	-0.5	-6%	-8	-2	-2%	-1.0%

An excerpt from above in order of their number in CtBP-E1A blk, low to high.
SMILES	Sfp inh	Menin-MLL FL inh	gsp antag	CtBP-E1A blk	gsp agonist
CCOc1ccccc1C(=O)NCC(=O)OCc1csc(CC(=O)Nc2ccc(C)cc2)n1	/	/	-6%	-11	-1%
CC(Oc1ccc(F)cc1)C(=O)Nc1cccc(-c2nn[nH]n2)c1 (stereo not given)	32µM*	2.2	-5%	-6	1%
COc1cc(OC)cc(C(=O)NCC(=O)N2CCC(C)CC2)c1	17%	2.5	4%	4	0%

(next part)
SMILES	Sfp inh	Menin-MLL FL inh	gsp antag	TRPV1 PAM	CtBP-E1A blk	gsp agonist	ClpP mod
C=CCNC(=O)C(=O)NCCOc1ccccc1Cl	-7%	5.4	-1%	0	9	?	0.8%
O=C(Nc1nnc(S(=O)(=O)Nc2ccccc2)s1)C1CCCCC1	8%	-4.6	-23%	-15&9	7	4%	0.0%&-1.1%
CCCCN1C(=O)CC(Sc2ccccc2C(=O)O)C1=O (stereo not given)	12%	2.8	2%	-7	-7	6%	-3.1%
CCCn1c(SCC(=O)NC(C)(C)C)nnc1-c1ccco1	7%	-0.1	4%	1	8	17%[15.4 µM]	/
CC(=O)Nc1cccc(NC(=O)CCc2ccccc2)c1	5%	0.6	-1%	9	-8	?	?
CC(=O)c1c(C)oc2c1cc(NS(=O)(=O)c1ccc(C(=O)O)cc1)c1ccccc12	22%	-7.3	-3%	?	-22	-23%	/
Cc1oc(C(C)(C)C)cc1C(=O)NCc1ccc2c(c1)OCO2	15%	3.0	-4%	-23	-2	-1%	/
CCOCCCn1c(C)nc2c(c1=O)c1nc3ccccc3nc1n2-c1ccc(C)cc1	1%	-0.4	3%	-20	-4	-2%	-3.0%
CN(C)S(=O)(=O)N1CCN(c2cccc(Cl)c2)CC1	-4%	6.9	-4%	-21	8	2%	0.8%
Cc1c(Cc2ccccc2)c(=O)n2c([nH]c3ccccc32)c1C#N	79µM*	3.8	-11%	9	-18	-2%	3.2%
CC(=O)N1CCN(C(=O)/C(C#N)=C/c2ccc3c(c2)OCO3)CC1	-1%	-2.1	0%	0	-1	-8%[15.4 µM]	/
CCCCN(C)C(=O)c1nc2ccccn2c1CN1CCN(c2cnccn2)CC1	-4%	-1.0	-9%	25	1	9%	0.2%
CCN(CC)c1ccc(C=C(c2nnnn2-c2ccccc2)c2nnnn2-c2ccccc2)cc1	-9%	?	-26%	-9	-1	-10%[15.4 µM]	28µM*
